Screens: PubChem BioAssay, several laboratories
RN4220 kill = growth inhibition of S. aureus RN4220, primary screen, OD600; inhibition, % (test concentration not listed); AID 1259311, 2017; 16 h; 0.33% of 330,000 active;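 active = z-score of -3 or lower and OD600 up to 0.18 on both plates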;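 also: plate controls were untreated cells for no effect and reference antibiotic for full effect; stock transfer was 100 nL into about 80 µL; one replicate is shown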
BJeLR viability = MLPCN primary cell-based screen for lethality selective to Ras in HRASV12 cells | BJeLR (HRASV12) viability, CellTiter-Glo ATP luminescence, 48 h; reference of the scale not given here | inhibition, % (test concentration not listed) | 0.17% of 300,000 active;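 active = replicate mean above 50%; inconclusive = above 50% but judged a plate artefact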;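 also: 50 nL library stock added to about 25 µL; numbers are from one replicate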
PrP 5UTR inh = inhibition of PrP 5' UTR reporter expression; cell-based PrP 5' UTR mRNA reporter, plate reader; inhibition, % (no concentration beside the values); 0.35% of 340,000 active;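 active = every replicate at 50% or more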;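 also: 0 = median of the neutral control wells; tested in H4 reporter cells; numbers are from one replicate; inactives centre near -14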
Mtb hypoxia rep = PubChem AID 1159583; fluorescence inhibition, % (test concentration not listed); M. tuberculosis hypoxia-regulated fluorescent reporter, fluorescence; 0.1% of 300,000 active;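 active = 35 to 45% if threefold the growth effect, above 45% if 1.5-fold the growth effect; inactive = the rest, general growth blockers included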;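 also: wells of about 50 µL received 100 nL stock; 0% = vehicle wells and 100% = reference inhibitor wells; whole bacteria with a GFP reporter of the hypoxia response; strong numbers were not always called active; many hits fall short of the cut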
Autofluor counter = counter-screen for toxin protease inhibitors: compound fluorescence; fluorescence intensity (test concentration not listed); 3.1% of 360,000 active; compound autofluorescence counterscreen, microsphere flow cytometry; active compounds read high;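 active = at least 3 SD above the mean of all compounds, about 16000 in these data; inconclusive = too few beads counted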;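 also: 100 nL of 1 mM stock went into each well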
ugtP null kill = growth inhibition of ugtP-null S. aureus, primary screen, RN4220 ugtP deletion, OD600. 16 h; some inactives read as strong as hits. growth inhibition, % (concentration not given with the values). 0.54% of 330,000 active;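 active = z-score under -3 and OD600 up to 0.15 on both plates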;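 also: plate controls were untreated wells for no effect and antibiotic for full effect; wells of about 80 µL received 100 nL stock; the first replicate is given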
Mtb hypoxia rep growth = recorded beside Mtb hypoxia rep, whose call it bears; growth inhibition, %; measured here: M. tuberculosis growth (absorbance);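 0% = vehicle and 100% = reference antibiotic; read after six days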
* hit, by the source's call; u = inconclusive; x = no result given.

SMILES	RN4220 kill	BJeLR viability	PrP 5UTR inh	Mtb hypoxia rep	Mtb hypoxia rep growth	Autofluor counter	ugtP null kill
CC1Nc2ncnc(N3CCN(c4ccccn4)CC3)c2N(Cc2ccccc2)C1=O (configuration not stated)	-0.5	-4	-20	-2	9	4164	-2
NS(=O)(=O)c1ccc(CCNC(=O)CSc2cccs2)cc1	6.3	8	-26	16	4	4331	-65
COc1ccc(C(=O)NN(C)c2nc(-c3ccccc3)cc(C)c2S(C)(=O)=O)cc1	0.5	2	-8	x	x	2643	-1
CC(=NNc1ccc(Cl)c(C(=O)O)c1)c1ccc(N2CCOCC2)cc1	-2.1	x	x	-9	-9	x	0
CCOc1ccccc1NC=C1C(=O)OC(C)(C)OC1=O	-0.3	1	-1	0	-5	4733	-4
O=C(NC1CC1)c1cccc(Nc2ccc(-c3ccc4c(c3)OCCO4)nn2)c1	-6.9	6	-35	2	4	21941*	-7
COCCCN1CC(=O)N2C(c3cccc(OC)c3)c3[nH]c4ccccc4c3C[C@H]2C1=O (some centres not stated)	2.2	1	3	15	3	3401	-5
CCOC(=O)C1(Cc2ccccc2C(F)(F)F)CCN(Cc2ccc(COC)o2)CC1	1.0	-4	-14	-8	-3	2113	-6
COc1cccc(-n2c(=S)sc3c(=O)n(-c4ccccc4C)c(SCC(=O)O)nc32)c1	1.0	-2	-7	0	-11	3208	6
COc1ccc(C(C(=O)NC2CCCC2)N(C(=O)c2csnn2)C2CC2)cc1 (configuration not stated)	2.4	-8	-2	6	9	6060	9
COc1ccc(-c2cc3ccccc3n2CC(O)CN2CCOCC2)cc1 (configuration not stated)	2.5	2	-7	9	13	4592	-1
CCCCOc1ccc(C(=O)NCC(=O)NCC(c2ccco2)N2CCCCC2)cc1 (configuration not stated)	2.9	5	-22	-1	0	6583	8
CN(C)c1oc(COc2ccccc2F)nc1C#N	9.2	13	-11	x	x	5142	0
O=[N+]([O-])c1ccc2c(c1)ncn2CCc1ccccc1	2.4	3	-25	-4	-1	3778	4
O=C1CN(C(=O)COC(=O)/C=C/c2ccc(OC(F)F)cc2)c2ccccc2N1	2.3	-13	-12	9	-2	2020	9
COC(=O)[C@@]1(Cc2ccccc2)[C@H]2C(=O)N(C)C(=O)[C@H]2[C@H]2CN=C(SCc3ccccc3)N21	4.5	x	-15	-6	-2	2788	-4
Cc1ccc(C)c(NC2=NCC(=O)N2C2CCCCC2)c1	2.2	-4	-6	3	-2	3163	7
O=C(NC(c1ccc(Cl)cc1)c1cc(Cl)c2cccnc2c1O)c1cccnc1 (configuration not stated)	x	33	25	x	x	2432	x
Cc1ccccc1Oc1ccc(S(=O)(=O)NCCC(=O)O)cc1	0.0	-3	-4	-2	-2	15977	-3
CCc1ccc2c(c1)c1nnc(NN)nc1n2CC	4.0	2	-10	2	8	9348	9
O=C(NCCN1CCCC1=O)Nc1ccccc1	4.6	4	-11	7	3	4011	8
COc1ccccc1NC(=O)CSc1ncc(CO)n1Cc1ccc(F)cc1	4.3	3	-14	8	-4	3996	7
Cc1sc2nc(CSc3nc4ccccc4s3)[nH]c(=O)c2c1C	5.0	-5	x	1	2	x	1
COc1ccc(C(=O)NCCS(=O)(=O)N2CCC3(CC2)OCCO3)cc1	x	12	8	x	x	u	x
CCC(C)NC(=O)C1CCN(C(=O)COc2ccc3c4c(c(=O)oc3c2C)CCCC4)CC1 (configuration not stated)	5.8	-5	-3	11	3	4525	13
CCc1ccc(NC(=O)COc2ccc(Br)cn2)cc1	2.3	3	-37	6	0	3510	7
CCC(O)CNC(=O)NC(=C(Cl)Cl)c1ccc(C)c(F)c1 (configuration not stated)	-2.3	-7	5	8	-1	2048	3
CC1CCCN(C(=O)C(C)Sc2nc(-c3ccccc3)cc(C(F)(F)F)n2)C1 (configuration not stated)	-13	0	5	11	3	5553	-25
Cc1cc2cc(CCNC(=O)CCCc3ccccc3)c(=O)[nH]c2cc1C	7.4	-8	-3	-13	-14	4344	-10
Cn1cccc1C(=S)N=P(C1CCCCC1)(N1CCOCC1)N1CCOCC1	2.8	3	-15	15	10	7128	11
CCCCNC(=O)C1(NC(=O)Nc2ccccc2)CCCCC1	-2.0	0	-32	1	1	4222	-3
Oc1ccc(Oc2ccc3c(C(F)(F)F)cc(C(F)(F)F)nc3n2)cc1	4.7	-4	-38	16	12	4103	4
COc1ccc(N2CC(NS(=O)(=O)c3cccs3)CC2=O)cc1OC (configuration not stated)	2.1	4	-5	4	-3	x	7
COC(=O)C1=C(c2cc3ccccc3s2)CC2CCC1N2C(=O)NCCS(C)=O (configuration not stated)	4.8	x	x	16	12	x	3
COc1cc(C(=O)Nc2ccc(NC(=O)c3ccco3)nc2)cc(OC)c1OC	-6.1	-4	-5	x	x	3579	6
CC(C)CNC(=O)C(=O)NCC1OCCCN1S(=O)(=O)c1ccc2c(c1)OCCO2 (configuration not stated)	3.9	-15	-12	-1	16	5368	1
NC(=O)c1c(NC(=O)C2COc3ccccc3O2)sc2c1CCN(Cc1ccccc1)C2 (configuration not stated)	-0.7	1	-33	-6	-7	4073	2
O=C(/C=C/c1ccc([N+](=O)[O-])cc1)NCc1ccc2c(c1)OCO2	4.4	1	-11	15	16	4310	7
Cc1ccsc1C(=O)NCCc1ccc(S(N)(=O)=O)cc1	2.1	4	-8	-2	-1	5780	9
COC(=O)c1ccc(NS(=O)(=O)NC(=O)c2c[nH]c3ccccc23)cc1	-0.3	2	-11	-3	0	5519	-2
O=C(Cc1c[nH]c2ccccc12)NCc1ccc(Cl)cc1	2.2	-4	-33	7	8	2421	-9
C=CCNc1ncnc2ccc(Br)cc12	8.5	2	-2	16	12	9005	4
C/C(CC(=O)Nc1ccc([N+](=O)[O-])cc1)=N\NC(=O)c1ccccc1[N+](=O)[O-]	x	3	-61	x	x	4076	x
CCc1cccc(CC)c1-n1c(SCC(=O)c2c(N)n(C)c(=O)n(C)c2=O)nnc1-c1cccnc1	6.5	-12	-21	7	0	2460	2
COC(=O)c1c(N)sc(C(C)=O)c1C	9.5	1	6	5	1	4850	-12
Cc1ccccc1NC(=O)CSc1nnc(NC(=O)c2ccco2)s1	-4.0	-1	-11	12	4	4749	6
CC(C#N)(NC(=O)CN1CCN(S(=O)(=O)c2cc(C(F)(F)F)ccc2Cl)CC1)C1CC1 (configuration not stated)	4.2	x	-30	0	-5	x	9
COc1ccc(-c2noc(-c3cccnc3)n2)cc1OC	3.8	3	-61	9	7	2416	16
COc1cccc(CNC(=O)C2CCN(S(=O)(=O)c3ccc4c(c3)CC(C)N4C(C)=O)CC2)c1 (configuration not stated)	0.6	-3	-1	4	7	5537	6
CCOc1ccc(S(=O)(=O)N2CCN(C(=O)c3sccc3C)CC2)cc1	5.7	-10	-27	x	x	2976	11
COc1ccccc1N1CCN(C(c2ccc(F)cc2)c2nnnn2C(C)C)CC1 (configuration not stated)	-0.9	10	-19	x	x	2372	1
COc1ccc(NC(=O)/C(C#N)=C/c2ccc(-c3ccccc3C(=O)O)o2)cc1	5.3	-7	-21	-3	6	3857	10
CC(C)(C)c1ccc(-c2nn(CCC#N)cc2C=NO)cc1	0.2	x	x	-7	9	x	-16
CCOc1ccc(N(CC(=O)NCc2ccc(OC)cc2)S(C)(=O)=O)cc1	2.6	0	-22	-3	-7	4495	2
Nc1n[nH]c(C(F)(F)F)c1-c1ccccc1	1.6	8	-7	-2	4	2555	1
CCOC(=O)c1cnc2c(C)cc(Cl)cc2c1NCCCN1CCOCC1	5.4	16	-11	21	13	4034	4
C[N+](C)(C)CCCCCCC(=O)C=NO	-0.4	x	x	-3	-2	x	4
CN(C)C=C1N=C(c2cccs2)OC1=O	6.0	x	x	8	0	x	-4
CCNC(=O)NCc1c(C)c(C)n(Cc2ccccc2)c1-n1cccc1	1.6	0	13	-2	7	3283	3
Cc1nnc(N/N=C/c2ccc(Br)cc2)n1N	x	-5	-12	x	x	4065	x

2 entries from above, as a markdown table.
| structure | RN4220 kill | BJeLR viability | PrP 5UTR inh | Mtb hypoxia rep | Mtb hypoxia rep growth | Autofluor counter | ugtP null kill |
| --- | --- | --- | --- | --- | --- | --- | --- |
| CCOC(=O)c1cnc2c(C)cc(Cl)cc2c1NCCCN1CCOCC1 | 5.4 | 16 | -11 | 21 | 13 | 4034 | 4 |
| COc1ccc(-c2noc(-c3cccnc3)n2)cc1OC | 3.8 | 3 | -61 | 9 | 7 | 2416 | 16 |

The listing picks up, starting four compounds before the break.
SMILES	RN4220 kill	BJeLR viability	PrP 5UTR inh	Mtb hypoxia rep	Mtb hypoxia rep growth	Autofluor counter	ugtP null kill
C[N+](C)(C)CCCCCCC(=O)C=NO	-0.4	x	x	-3	-2	x	4
CN(C)C=C1N=C(c2cccs2)OC1=O	6.0	x	x	8	0	x	-4
CCNC(=O)NCc1c(C)c(C)n(Cc2ccccc2)c1-n1cccc1	1.6	0	13	-2	7	3283	3
Cc1nnc(N/N=C/c2ccc(Br)cc2)n1N	x	-5	-12	x	x	4065	x
C[C@@H]1CC=C[C@H]2[C@H]1C(=O)N(Cc1ccccc1)[C@H]2c1ccc(C(F)(F)F)cc1	x	-1	-12	x	x	2887	x
O=C(Nc1nsc(-c2ccccc2)n1)c1cccs1	9.0	5	-51	x	x	2268	4
C=CCNC(=S)NN=C(C)c1cccc(OC)c1	0.4	x	x	3	-3	x	-4
CC1=NN(c2ccc(C)cc2C)C(=O)C1C(c1ccccc1)C1C(=O)N(c2ccc(C)cc2C)N=C1C (configuration not stated)	20	-2	-4	5	16	3393	5
COC(=O)[C@]1(C)CCC[C@@]2(C)C3CC[C@]4(OC(C)=O)C[C@@]3(CCC21)CC4=O (some centres not stated)	22	x	-16	3	10	3115	16
C=C(C)n1c(=O)n(Cc2ccccc2C)c2ccccc21	3.5	-7	-7	10	8	3409	7
CN(C)C(=O)Cn1c(SCC(=O)NCc2ccc3c(c2)OCO3)nc2ccccc21	0.3	0	-14	x	x	2772	6
O=C(CN1CCN(c2ccccn2)CC1)NC1CCCC1	3.1	-2	-8	-13	-2	8766	-1
CCOc1ccc(C(=O)Nc2c3c(nn2-c2ccccc2)CS(=O)(=O)C3)cc1	3.5	-15	0	5	1	5731	5
COC(=O)c1ccc(C(=O)OC)c(NC(=S)N2CCN(c3ccccc3)CC2)c1	0.6	-7	-11	-16	-11	7741	-3
CC(=O)Nc1ccc(S(=O)(=O)N(Cc2ccco2)Cc2cc3ccccc3[nH]c2=O)cc1	3.4	-1	-4	-8	3	6135	-1
O=C(C=Cc1cccs1)Nc1ccc(N2CCOCC2)c(S(=O)(=O)Nc2ccccc2Cl)c1	5.5	x	x	2	12	x	-20
CCCCN1C(=O)C(CC(=O)NCC)SC1=Nc1ccccc1 (configuration not stated)	6.5	-5	10	6	5	3009	6
Cc1ccc(NC(=O)CSCC(=O)O)cc1	3.5	7	-15	12	-6	4441	5
Cc1ccccc1-c1nc(CS(=O)(=O)CC(=O)NCc2ccc3c(c2)OCO3)c(C)o1	-11	3	-19	3	9	5795	-4
COc1ccccc1CNC(=O)N1CCN(S(=O)(=O)c2ccccc2)CC1	3.0	2	-14	0	9	3568	8
CC(C)c1ccc([N+](=O)[O-])cc1S(=O)(=O)N1CCN(C)CC1	3.5	6	-23	-2	-1	3086	2
CCc1ccc(OCC(=O)N/N=C/c2cc([N+](=O)[O-])ccc2N2CCCCCC2)cc1	x	-13	-23	x	x	2136	x
CCc1cccc(NC(=O)C2CCCN(S(=O)(=O)c3cnc[nH]3)C2)c1 (configuration not stated)	4.1	-9	-19	4	3	5197	13
Cc1ccc2[nH]c3c(c2c1)CCNC3=O	3.8	36	-6	5	9	4117	5
COc1ccccc1NC(=O)CCC(=O)Nc1nnc(C2CCCCC2)s1	-1.7	-2	-13	12	9	6401	0
CCOc1cc(-c2nnc(NC(=O)C3=COCCO3)o2)cc(OCC)c1OCC	-0.1	4	-21	3	16	5812	-5
O=C1CC(N(C(=O)c2ccco2)c2cccc(Cl)c2)C(=O)N1c1cccc(Cl)c1 (configuration not stated)	-8.8	0	-70	3	12	11735	0
CC(=O)Oc1ccc(NC(=O)Cc2ccccc2)cc1	0.7	-1	-1	11	7	7918	3
COc1ccc(NC(=O)Cc2ccccc2F)cc1S(=O)(=O)N1CCCCC1	5.3	x	-13	13	9	3587	9

An unsorted share of the library. About 3.9% of those tested had a hit in this group.
